Arbovirus inh: blocks arbovirus infection | arbovirus infection cell-based antiviral screen | inhibition, % at 10 µM | 0.37% of 200,000 active | AID 1251;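 active = inhibition from about 30%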;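 also: bluetongue infection of BSR cells; cell survival read as ATP light after 72 h; 0% = infected wells without compound and 100% = uninfected wells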
Mtb bLac sens: beta-lactam sensitization of Mtb H37Rv; inhibition, % at 25 µM; M. tuberculosis H37Rv growth with meropenem, percent inhibition; hits of this screen are not shown here; AID 434955; 0.27% of 330,000 active;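 active = about 74% or more and at least 40 points above the plate without the antibiotic, then above 30% in a dose series; inconclusive = first-round hits that could not be retested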;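 also: growth measured after seven days incubation then overnight dye step; 0% = bacteria only wells and 100% = bacteria with antibiotic; twin plates without the antibiotic show which effects depend on it; some results filed as inactive read as strong as hits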
RecA intein inh: inhibitors of M. tuberculosis RecA intein splicing; inhibition, %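 (about 9 µM by stock and volumes)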; AID 2221; cell-free RecA intein splicing, fluorescence; P9WHJ3; 0.75% of 290,000 active; in the data active = inhibition above about 30%; inconclusive = no clear call, values can overlap the other calls;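 also: 0% = vehicle wells and 100% = reference inhibitor control wells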
Target sequence (P9WHJ3 whole entry, looked up): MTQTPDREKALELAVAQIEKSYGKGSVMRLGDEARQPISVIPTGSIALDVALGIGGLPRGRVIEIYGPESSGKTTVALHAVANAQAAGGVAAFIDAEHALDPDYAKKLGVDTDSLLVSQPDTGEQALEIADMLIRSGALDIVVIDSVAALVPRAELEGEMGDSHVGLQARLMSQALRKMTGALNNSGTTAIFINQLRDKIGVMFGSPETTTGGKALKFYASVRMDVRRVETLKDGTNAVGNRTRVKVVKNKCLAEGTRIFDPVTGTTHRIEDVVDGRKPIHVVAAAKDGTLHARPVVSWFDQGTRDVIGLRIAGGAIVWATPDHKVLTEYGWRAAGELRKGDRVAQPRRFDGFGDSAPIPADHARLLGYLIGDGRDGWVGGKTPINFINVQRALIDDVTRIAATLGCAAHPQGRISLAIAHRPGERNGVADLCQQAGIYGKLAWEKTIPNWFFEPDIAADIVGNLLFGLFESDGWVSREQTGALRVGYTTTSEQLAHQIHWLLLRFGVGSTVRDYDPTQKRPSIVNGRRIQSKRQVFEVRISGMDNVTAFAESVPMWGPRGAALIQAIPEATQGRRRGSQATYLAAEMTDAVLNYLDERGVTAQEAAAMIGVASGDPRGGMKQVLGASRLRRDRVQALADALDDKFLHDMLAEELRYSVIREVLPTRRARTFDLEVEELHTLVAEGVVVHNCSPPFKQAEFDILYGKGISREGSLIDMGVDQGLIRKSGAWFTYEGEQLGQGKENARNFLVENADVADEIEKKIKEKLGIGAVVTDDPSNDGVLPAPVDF
Mtb H37Rv: M. tuberculosis H37Rv growth inhibitors, H37Rv strain (AID 1626); M. tuberculosis H37Rv growth inhibition; higher % means a stronger effect; 0.95% of 220,000 active; inhibition, % at 10 µM; hits with a dose series show IC50 in µM;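 active = confirmed in a dose series; inconclusive = inhibition above 80% but not taken into the dose series; inactive = below 80% or under 30% at every dose of the series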;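 also: bacteria incubated seven days before Alamar blue readout; 0% = bacteria only wells and 100% = bacteria with antibiotic wells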
YopH inh: inhibitors of Yersinia enterocolitica YopH tyrosine phosphatase; 0.16% of 140,000 active; AID 898; fluorescence Ex485/Em525; inhibition, %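 (about 10 µM by stock and volumes)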;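 active = inhibition of 50% or more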;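 also: controls were vehicle for no effect and minimum signal wells for full effect; inactives centre near -20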
Arbovirus inh repeat: recorded beside Arbovirus inh, whose call it bears; inhibition, %; measured here: 10K subset replicate screen; many hits read low in the repeat;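 first of two repeat runs on a subset; 0% = infected and 100% = uninfected wells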
Starred values were filed as active, the others as inactive; ? = inconclusive; / = not tested or not shown. This is a subset. The share of hits here may be higher or lower than overall.

The opening 5 records, to show the layout:
SMILES | Arbovirus inh | Mtb bLac sens | RecA intein inh | Mtb H37Rv | YopH inh | others
Cn1ccnc1C(=O)c1ccccc1Cl | / | 11.4 | 1.6 | / | /
CCN1CCN(c2nc3c(c(=O)[nH]c(=O)n3C)n2CCCc2ccccc2)CC1 | 12.8 | 1.6 | 1.3 | -3.5% | /
Cc1sc(NC(=O)CN(C(=O)c2ccccc2F)C2CCCC2)c(C(N)=O)c1C | / | 3.1 | -2.1 | / | /
Cc1ccc(OCC(=O)Nn2c(C)nc3ccccc3c2=O)c(C(C)C)c1 | 10.3 | -1.9 | -1.3 | -4.2% | -27.4
O=C(Nc1ccc(Cl)cc1)Nc1nnc(SCc2ccc(Cl)cc2)s1 | 4.1 | -4.2 | -0.1 | -7.4% | -32.9

All compounds of this part, from the start:
SMILES | Arbovirus inh | Mtb bLac sens | RecA intein inh | Mtb H37Rv | YopH inh | others
Cn1ccnc1C(=O)c1ccccc1Cl | / | 11.4 | 1.6 | / | /
CCN1CCN(c2nc3c(c(=O)[nH]c(=O)n3C)n2CCCc2ccccc2)CC1 | 12.8 | 1.6 | 1.3 | -3.5% | /
Cc1sc(NC(=O)CN(C(=O)c2ccccc2F)C2CCCC2)c(C(N)=O)c1C | / | 3.1 | -2.1 | / | /
Cc1ccc(OCC(=O)Nn2c(C)nc3ccccc3c2=O)c(C(C)C)c1 | 10.3 | -1.9 | -1.3 | -4.2% | -27.4
O=C(Nc1ccc(Cl)cc1)Nc1nnc(SCc2ccc(Cl)cc2)s1 | 4.1 | -4.2 | -0.1 | -7.4% | -32.9
CCOC(=O)c1sc(=S)n(-c2ccccc2)c1N(C(C)=O)C(C)=O | 12.6 | -6.1 | 1.4 | -8.6% | /
COc1cc(OC)c(C(=O)OC(C)C(=O)Nc2cc(C(F)(F)F)ccc2Cl)cc1OC (configuration not stated) | 3.0 | 3.5 | -4.7 | 5.0% | -53.9
COCCn1c(SCc2csc(-c3ccccc3)n2)nc2ccccc21 | 5.8 | -1.2 | 6.7 | -1.9% | -19.4
Cc1ccc(NS(=O)(=O)c2cccc3cccnc23)c(Br)c1 | / | 0.5 | 0.6 | / | /
COc1ccc(C)cc1S(=O)(=O)N1CCC(C(=O)NC2CCCC2)CC1 | / | -1.8 | 0.3 | / | /
Cc1nn(-c2ccccc2)c(Cl)c1C(=O)OCC(=O)NCCc1ccccc1 | / | 5.5 | 1.1 | / | /
Cc1ccccc1NC(=O)c1ccc(F)c(S(=O)(=O)NCC2CCCO2)c1 (configuration not stated) | / | 0.8 | 0.9 | / | /
C1CCCN(C2CCNCC2)CC1 | / | -1.6 | -6.5 | / | /
O=C(Nc1nc(-c2ccccn2)cs1)c1ccc(Cl)s1 | -19.5 | 85.0 | 0.6 | ? | -35.1 | Arbovirus inh repeat=-18.0
Cc1cccnc1NC(=O)/C=C/c1ccc2c(c1)OCO2 | -12.3 | -6.0 | 1.9 | -2.8% | -16.8
Cn1c(=O)c2c(nc(NCCCN3CCOCC3)n2Cc2ccc(Cl)cc2)n(C)c1=O | / | ? | -0.8 | -9.3% | -42.0
Cc1nn(CCCC(=O)NCc2ccccc2)c(C)c1[N+](=O)[O-] | 5.8 | 1.1 | -1.8 | -6.7% | -11.4
C/C(=N/OC(=O)c1ccccc1Br)c1ccc(C)cc1 | / | 96.7 | 8.7 | / | /
CCNC(=S)NN(c1ccccc1)c1ccccc1 | -0.2 | -9.8 | -1.0 | 3.4% | 4.4
Cc1cc(NC(=O)CCN2CCC(C)CC2)ccc1Br | / | 1.7 | -2.3 | / | /
CN1CCN(C(=O)Nc2cccc3ccccc23)CC1 | 10.1 | 5.1 | -4.1 | -2.4% | -18.6
CC(/C=N/NC(=O)c1nn(C)c(C)c1Br)=C\c1ccccc1 | -3.0 | 3.3 | 0.8 | 1.6% | -22.9
CC(=O)Nc1sc2c(c1C(c1ccccn1)N1CCCC1)CCCC2 (configuration not stated) | 5.8 | 11.2 | 1.9 | 2.0% | /
Cc1cc2c(c(=O)o1)C(CCC1CCCCC1)C(C#N)=C(N)O2 (configuration not stated) | / | 1.6 | -3.8 | -6.0% | /
Cc1ccc2nc(-c3ccccc3)cn2c1 | -18.5 | 9.1 | 1.6 | 1.1% | -43.2
CCOc1ccc(NCc2nnc(SCC(=O)Nc3cc(C)on3)n2-c2ccc(OC)cc2)cc1 | -13.7 | -6.8 | 6.1 | 35.3µM* | -5.4
Cc1ccc(NC(=S)NNC(=O)CSc2nc3ccccc3c(=O)n2-c2ccc(C)cc2)cc1 | 4.9 | 3.6 | -1.3 | 10.6% | -21.0
CCC(CC)C(=O)Nc1cc(C(=O)NCCc2ccccc2)ccc1Cl | -1.0 | 3.5 | -2.8 | -10.9% | 4.1
CN1CCC(=NNC(=O)C(=O)Nc2ccc(F)cc2)CC1 | -2.5 | 1.2 | -2.1 | ? | /
Cc1ccccc1N(CC(=O)N/N=C/c1ccc(F)cc1)C(=O)c1ccccc1 | -0.5 | 2.4 | 4.9 | -11.4% | -15.9
O=C(CNC(=O)c1cccc(Cl)c1)N/N=C/c1cccnc1 | / | -6.9 | -1.5 | -2.3% | /
Cc1c(NC(=S)NC(=O)c2ccco2)c(=O)n(-c2ccccc2)n1C | -2.8 | 2.7 | 0.4 | 2.4% | -21.2
CCN(CC(=O)NC1CCS(=O)(=O)C1)S(=O)(=O)c1ccc(C)cc1C (configuration not stated) | 0.8 | -0.7 | 1.3 | -1.2% | -4.1
COc1ccc(NC(=O)CCCC(=O)NCCc2ccc(OC)c(OC)c2)cc1 | / | -6.8 | -0.5 | / | /
COc1ccc(Cn2c(-c3ccc(Cl)cc3)c[n+]3ccccc23)cc1 | 8.6 | 2.4 | 5.1 | 8.3% | -2.5
COC(=O)c1ccc(NC(=O)c2ccc(C)cc2)o1 | -3.6 | -2.9 | 1.2 | -3.4% | -37.2
CN(C(=O)Cc1c(C(=O)O)n(C)c2ccccc12)c1cccc(C(F)(F)F)c1 | / | 10.3 | -1.2 | / | /
CC12CCC(C(=O)NNC(=O)c3ccccc3)(OC1=O)C2(C)C (configuration not stated) | / | -9.8 | 0.5 | / | /
CCOc1ccc(CNC(=O)CCS(=O)(=O)Cc2ccccc2C)cc1OC | 0.3 | 2.3 | 1.4 | 7.3% | /
COc1cccc(C(=O)N2CCC3(CC2)OCCO3)c1 | / | -8.9 | 0.5 | 0.4% | /
O=C(CSc1nnc2c3c4c(sc3ncn12)CCCC4)NCc1ccco1 | -1.4 | 6.7 | 0.4 | -7.7% | -14.3
CCCCN(CC)C(=O)c1n[nH]c(=O)c2ccccc12 | 2.5 | 1.4 | -1.1 | 2.7% | 3.4
Cc1c(Cc2ccc3c(c2)OCO3)sc(NC(=O)C(C)(C)C)c1C#N | -7.8 | -6.4 | -1.4 | 3.3% | -32.4
COc1cc(OC)cc(N(C(=O)C2COc3ccccc3O2)C(C(=O)NC2CCCCC2)c2ccc(O)cc2)c1 (configuration not stated) | -21.9 | 24.2 | 11.4 | 12.5% | -23.1
O=S(=O)(c1cccc(NC(=S)Nc2ccc(Br)cc2Cl)c1)N1CCOCC1 | -3.8 | -11.6 | 5.0 | 3.7% | -4.0
O=C(CSc1nc2ccccc2c(=O)n1-c1ccccc1)N1CCc2ccccc21 | -1.2 | -4.0 | 4.9 | 3.4% | 4.7
COc1ccc(-n2nc(C(=O)NCC(=O)N3CCN(c4ccc(F)cc4)CC3)c3ccccc3c2=O)c(OC)c1 | / | -3.0 | 1.2 | / | /
COc1cc(OC)c(OC)cc1/C=C1\Oc2cc(OCC(=O)N3Cc4ccccc4C[C@H]3C(=O)O)ccc2C1=O | / | -4.0 | -2.4 | / | /

Overlap with the part before: 4 entries, then new ones.
SMILES | Arbovirus inh | Mtb bLac sens | RecA intein inh | Mtb H37Rv | YopH inh | others
O=S(=O)(c1cccc(NC(=S)Nc2ccc(Br)cc2Cl)c1)N1CCOCC1 | -3.8 | -11.6 | 5.0 | 3.7% | -4.0
O=C(CSc1nc2ccccc2c(=O)n1-c1ccccc1)N1CCc2ccccc21 | -1.2 | -4.0 | 4.9 | 3.4% | 4.7
COc1ccc(-n2nc(C(=O)NCC(=O)N3CCN(c4ccc(F)cc4)CC3)c3ccccc3c2=O)c(OC)c1 | / | -3.0 | 1.2 | / | /
COc1cc(OC)c(OC)cc1/C=C1\Oc2cc(OCC(=O)N3Cc4ccccc4C[C@H]3C(=O)O)ccc2C1=O | / | -4.0 | -2.4 | / | /
CN(c1ccc(Cl)cc1)S(=O)(=O)c1nnc(NC(=O)C(C)(C)C)s1 | / | -1.4 | 0.5 | / | /
O=[N+]([O-])c1cc([N+](=O)[O-])c2nonc2c1Nc1ccc(O)cc1 | / | -4.3 | -11.9 | / | /
COc1ccc(S(=O)(=O)NCC(c2ccc(C)cc2)N2CCN(C)CC2)cc1 (configuration not stated) | / | -5.6 | 0.4 | / | /
Cn1c(-c2ccccc2)c[n+]2c1-c1ccccc1C2 | 4.0 | -5.2 | -1.4 | 2.4% | -8.8
CC(C)(C)c1ccc(/C=C/C(=O)N2CCN(c3ncccn3)CC2)cc1 | 2.2 | 91.4 | 1.9 | 9.9% | -24.6
CCCNC(=O)CS(=O)(=O)Cc1nc(-c2cccc(OC)c2)oc1C | -1.6 | 0.9 | 3.7 | -4.1% | -3.8 | Arbovirus inh repeat=4.0
O=C(CSc1nnc2ccc(-c3cccnc3)nn12)Nc1ccc(F)cc1F | 4.4 | -4.6 | -0.2 | 5.0% | /
CCC(=O)N/N=C(\C)CC(=O)Nc1ccccc1-c1ccccc1 | 6.5 | 72.5 | 0.5 | -1.4% | -21.9
CCOc1ccccc1NC(=O)CSC1=NN2CCCC(=O)N=C2S1 | / | 3.8 | 1.1 | / | /
O=C(Nc1cccnc1)Nc1ccccc1Cl | -7.1 | -1.1 | -2.2 | -0.8% | -32.7
COc1ccc(/C=N\NC(=O)c2ccccc2)cc1COc1ccccc1 | / | -6.4 | 0.6 | / | /
COC(=O)c1ccc(Cn2nc(-c3ccccc3)ccc2=O)cc1 | / | ? | 1.7 | / | /
Cc1ccc(C)c(NC(=O)Cn2ccn(-c3ccc4c(c3)OCO4)c(=O)c2=O)c1 | / | -7.0 | 0.4 | / | /
CCOC(=O)CNC(=O)C1c2ccccc2C(=O)N(c2ccc(OC)cc2)C1c1ccc(OC)cc1 (configuration not stated) | -11.5 | ? | -1.8 | -3.7% | -15.7
COc1ccc(OC)c(-n2cnc3cc(C(=O)O)ccc32)c1 | 0.6 | -11.0 | 2.0 | -10.8% | -32.8
O=S(=O)(c1ccc(F)cc1)N1CCN(CCc2ccccc2)CC1 | / | 5.8 | -5.9 | / | /
Cc1cc2c3c(c1)C1(SCC(=O)N1c1ccc(F)cc1)C(=O)N3C(C)(C)CC2C (configuration not stated) | 2.6 | / | 0.7 | 7.9% | 6.6
CCOc1cccc(C(=O)N2CCCN(C)CC2)c1 | / | 0.9 | 0.5 | / | /
Cc1ccccc1Cc1c(C)nc2c(C(=O)NCc3ccco3)cnn2c1C | -7.7 | 42.9 | 17.2 | 1.4% | -27.1
Clc1ccc(Cl)c(-c2nn3c(COc4ccccc4)nnc3s2)c1 | -6.1 | 44.0 | -0.9 | 2.1% | -49.7
CCCCCC(=O)C(=O)c1ccc(O)cc1O | / | 8.1 | -0.2 | / | /
CCN(CC)CCCN(Cc1cc2cc3c(cc2[nH]c1=O)OCO3)C(=S)Nc1ccc(OC)cc1 | -13.0 | -8.1 | 1.7 | 5.2% | /
CC(=O)Nc1ccc(NS(=O)(=O)c2ccc(Cl)c(C(=O)O)c2)cc1 | -1.7 | 6.8 | -2.0 | 1.6% | -64.2
COc1ccc(O)c(C(=O)c2cnc3c(c2)c(C)nn3CCO)c1 | / | 5.9 | 0.2 | / | /
Clc1cccc(Oc2cnns2)c1Cl | -5.5 | 7.2 | 1.6 | 3.9% | -17.8
COc1cc(C)c(S(=O)(=O)NOCc2ccc([N+](=O)[O-])cc2)c(C)c1C | / | 2.5 | -2.0 | / | /
O=C(N1CCOCC1)n1cnc2ccccc21 | 6.4 | -3.0 | 0.7 | -0.6% | -7.4
COCCNC(=O)/C(C#N)=C/c1c(N2CCCCCC2)nc2ccccn2c1=O | / | ? | -1.9 | / | /
O=C(O)c1cccc(-n2nnnc2SCc2ccccn2)c1 | -0.8 | 7.4 | 0.4 | -7.3% | -26.8
C/C(=N\NC(=O)c1cccs1)c1ccc(C(=O)O)s1 | / | -1.9 | -0.8 | / | /
O=C(NC1CCCCCC1)C1CCN(S(=O)(=O)c2ccccc2)CC1 | -2.7 | 0.5 | 4.9 | 2.6% | -3.3
O=C(Cc1ccc(Cl)cc1Cl)NCC1(N2CCOCC2)CCCCC1 | 4.5 | 2.0 | -1.3 | 2.2% | /
NC(=O)C1CCN(/C=C2\C(=O)NC(=O)N(Cc3ccco3)C2=O)CC1 | / | 0.9 | 1.1 | -7.8% | /

Compound activity from PubChem.
